# SMN2 splice up = enhancers of SMN2 splice variant expression; AID 1458; Potency, µM (doses to about 46.1 µM), inactives show at the highest dose activity change, positive = activation, most hits filed as activators; hit rate 2.8% among 210,000; HEK293 SMN2-luciferase splicing reporter, luminescence, 30-36 h; note: % of control where 0% means no effect; nearly all actives have a fitted effect of over 55% in size
#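 HEK293 cells carry an SMN2 minigene-luciferase reporter in which exon 7 inclusion puts luciferase in frame. Cells were seeded at 2000 cells/well, attached for 10-12 hours, then exposed to compounds for 30-36 hours at 37C before ONE-Glo luminescence.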
# GAA glycogen = inhibitors or activators of human alpha-glucosidase glycogen cleavage; recombinant GAA, glycogen substrate, Amplex Red glucose oxidase fluorescence; AID 2100; hit rate 0.38% among 300,000; Potency, µM (series often up to 76.4 µM), without a hit: at the highest dose activity change, negative = inhibition, hits mostly inhibitors; P10253;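 note: 0% = full enzyme reaction and -100% = no-enzyme basal signal; the screen sought inhibitors and activators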
#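 qHTS, 1536-well; enzyme 4 nM final; cpd up to 77 uM; substrate bovine liver glycogen 30 ug; 50 mM citrate/phosphate pH 5.0, 0.01% Tween-20; 37 C, 40 min; Amplex Red detection 45 min RT; Hill fit → AC50.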
# GAA spleen mod = inhibitors or activators of human alpha-glucosidase in spleen homogenate; human spleen homogenate, 4-MU-alpha-glucoside fluorescence; AID 2112; hit rate 0.006% among 240,000; P10253; Potency, µM (highest dose often 79.9 µM), inactives show at the top dose activity change, negative = inhibition, hits mostly inhibitors;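 note: 0% = enzyme with vehicle and -100% = no enzyme basal signal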
#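 Human spleen homogenate (1 ug) incubated with compounds and 1 mM 4-methylumbelliferyl-alpha-D-glucopyranoside in pH 5.0 citrate/phosphate buffer, 37 C, 40 min. Stopped at pH 10; 4-MU fluorescence (Ex 365/Em 440 nm); AC50 by Hill fit.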
# RGS12 GoLoco inh = inhibitors of human Gai1-RGS12 GoLoco interaction (red fluorophore) | Gai1:RGS12 GoLoco peptide FP, rhodamine, 10 min | Potency, µM (titrated, usually from 61.6 µM), for inactives: at the top dose activity, negative = inhibition, hits mostly inhibitors | hit rate 0.44% among 230,000 | AID 880; active = well fitted inhibition curve with a large enough effect, not every such curve was filed as active; inactive = no such curve, though single readings can be large or run the other way; note: % is set by controls: 0 for no effect and ±100 for the full control effect; nearly all actives have a fitted effect of over 30% in size; many of its hits are not listed in these tables
# Target sequence (P63096 whole entry, looked up): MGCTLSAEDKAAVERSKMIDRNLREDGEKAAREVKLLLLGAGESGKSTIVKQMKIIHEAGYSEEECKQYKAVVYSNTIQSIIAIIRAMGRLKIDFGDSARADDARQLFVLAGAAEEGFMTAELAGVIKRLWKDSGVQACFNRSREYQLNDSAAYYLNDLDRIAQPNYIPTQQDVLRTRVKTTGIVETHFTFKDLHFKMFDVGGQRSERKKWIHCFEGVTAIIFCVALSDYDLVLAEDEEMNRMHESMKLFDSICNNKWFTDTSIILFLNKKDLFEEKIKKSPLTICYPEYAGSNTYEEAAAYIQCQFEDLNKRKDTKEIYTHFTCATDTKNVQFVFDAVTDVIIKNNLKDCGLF
# GAA inhib = alpha-glucosidase (human) inhibition. purified human GAA, 4-MU-alpha-glucoside fluorescence. P10253. AID 1466. Potency, µM (top dose mostly 76.9 µM), for inactives: at the highest dose activity change, negative = inhibition, usual class: inhibitors. hit rate 0.005% among 200,000;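 note: plate controls were uninhibited enzyme wells for no effect and no-enzyme background for full effect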
#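 qHTS format, compound range up to 77 uM. Human lysosomal enzyme at 4 nM, 400 uM 4-MU glucoside substrate, pH 5.0, 20 min room temperature; fluorescence after alkaline stop gives activity normalized to controls.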
# KDM4E inh = inhibitors of human JMJD2E histone demethylase; B2RXH2; JMJD2E catalytic domain, FDH-coupled NADH fluorescence (FDH is formaldehyde dehydrogenase); Potency, µM (doses to about 57.1 µM), for inactives: at the top dose activity change, negative = inhibition, actives largely listed as inhibitors; hit rate 1.6% among 230,000; AID 2147; active = well fitted inhibition curve with a large enough effect, not every such curve was filed as active; inconclusive = small, poorly fitted or top-dose-only effect, or another doubt; inactive = no such curve, though single readings can be large or run the other way;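 note: 0% = wells with enzyme and -100% = buffer wells without enzyme; nearly all actives have a fitted effect of over 50% in size; many of its hits are not listed in these tables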
# aGal spleen mod = alpha-galactosidase A (human) modulation; P06280; human spleen homogenate, 4MU-alpha-Gal fluorescence, 40 min; Potency, µM (top dose mostly 80 µM), for inactives: at the top dose activity change, negative = inhibition, usual class: inhibitors; hit rate 0.008% among 240,000; AID 2107;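 note: 0% = enzyme with vehicle and -100% = no enzyme basal signal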
# Target sequence (P06280 32-429 limits assumed): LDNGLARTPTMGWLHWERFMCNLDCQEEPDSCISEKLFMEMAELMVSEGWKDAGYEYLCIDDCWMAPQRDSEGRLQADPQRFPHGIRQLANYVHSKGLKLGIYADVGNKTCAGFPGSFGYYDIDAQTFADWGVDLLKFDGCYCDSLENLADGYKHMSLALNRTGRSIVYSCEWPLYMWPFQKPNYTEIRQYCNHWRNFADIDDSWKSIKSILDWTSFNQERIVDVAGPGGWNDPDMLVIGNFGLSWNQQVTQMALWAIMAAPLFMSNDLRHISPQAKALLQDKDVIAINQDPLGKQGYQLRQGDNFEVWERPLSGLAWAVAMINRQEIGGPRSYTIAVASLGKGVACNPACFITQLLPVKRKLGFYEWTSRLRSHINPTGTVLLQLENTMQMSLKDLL
#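 Spleen homogenate 1 ug + cpd (titration) + 4-MU-alpha-D-galactopyranoside 1 mM; 37C 40 min; 50 mM citrate/phosphate pH 5.0, 0.01% Tween-20; stop pH 10; fluorescence 365/440; AC50 via Hill.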
# * marks the source's active call; other numbers are inactive results; ? = inconclusive; . = not tested or not shown; [ ] = remark or other dose. Unless noted, calls come from the whole dose curve; as a rule, active = well fitted curve in the direction sought with a large enough effect; inconclusive = small, poorly fitted or top-dose-only effect, or another doubt; inactive = no such curve, though single readings can be large; an effect the other way counts as inactive or inconclusive. Potency is the fitted concentration of half-maximal effect. These rows are one share of the data (hit frequency here may not be typical).
# The first 7 compounds, to show the layout:
molecule	SMN2 splice up	GAA glycogen	GAA spleen mod	RGS12 GoLoco inh	GAA inhib	KDM4E inh	aGal spleen mod
CC(C)(C)NC(=O)Cn1nnc(-c2ccccc2Cl)n1	25%	25%	-6%	-34%	-4%	2%	13%
NC(=O)C1(N2CCCCC2)CCN(CC(=O)Nc2cc(Cl)ccc2Cl)CC1	-59%	2%	1%	20%	-13%	-5%	10%
Nc1nc(N2CCOCC2)cc(=O)[nH]1	3%	1%	-5%	20µM*	?	-28%	3%
O=c1oc2ccccc2n1CSc1nc2ccccc2s1	14%	-3%	2%	1%	?	-3%	3%
O=C(COC(=O)C1(c2ccc(F)cc2)CCCC1)N1CCc2ccccc21	-19%	10%	0%	-1%	-2%	0%	-3%
CCCN1Cc2cccc(C(=O)Nc3ccc(S(=O)(=O)N4CCCCCC4)cc3)c2C1=O	1%	9%	3%	5%	-3%	0%	12%
COc1ccc(CCN(C(=O)c2ccco2)C(C(=O)NC2CCCC2)c2ccncc2)cc1OC (stereo not given)	-29%	?	-1%	184%[activator]	?	-1%	2%

# The listing, from the first entry:
molecule	SMN2 splice up	GAA glycogen	GAA spleen mod	RGS12 GoLoco inh	GAA inhib	KDM4E inh	aGal spleen mod
CC(C)(C)NC(=O)Cn1nnc(-c2ccccc2Cl)n1	25%	25%	-6%	-34%	-4%	2%	13%
NC(=O)C1(N2CCCCC2)CCN(CC(=O)Nc2cc(Cl)ccc2Cl)CC1	-59%	2%	1%	20%	-13%	-5%	10%
Nc1nc(N2CCOCC2)cc(=O)[nH]1	3%	1%	-5%	20µM*	?	-28%	3%
O=c1oc2ccccc2n1CSc1nc2ccccc2s1	14%	-3%	2%	1%	?	-3%	3%
O=C(COC(=O)C1(c2ccc(F)cc2)CCCC1)N1CCc2ccccc21	-19%	10%	0%	-1%	-2%	0%	-3%
CCCN1Cc2cccc(C(=O)Nc3ccc(S(=O)(=O)N4CCCCCC4)cc3)c2C1=O	1%	9%	3%	5%	-3%	0%	12%
COc1ccc(CCN(C(=O)c2ccco2)C(C(=O)NC2CCCC2)c2ccncc2)cc1OC (stereo not given)	-29%	?	-1%	184%[activator]	?	-1%	2%
COCCN1C(=O)C(O)=C(C(C)=O)C1c1ccc(OC)c(OC)c1 (stereo not given)	12%	-8%	-4%	-2%	-1%	-4%	-12%
Cc1ccc(S(=O)(=O)N2CCN(C(=O)Cn3nc(C(=O)O)c4ccccc4c3=O)CC2)cc1	.	-7%	1%	11%	-12%	-6%	4%
O=C(Nc1ccc(C2=NCCN2)cc1)c1ccc(Cl)c(C(=O)Nc2ccc(C3=NCCN3)cc2)c1	.	5%	-1%	23%	3%	?	-7%
CCOC(=O)C1CCCN(C(=O)c2ccc(CNS(=O)(=O)c3ccc(C)cc3)cc2)C1 (stereo not given)	.	2%	-14%	1%	0%	9%	-14%
COC(=O)C1=C(C(C)=O)C(c2ccc(C)cc2)n2nnnc2N1 (stereo not given)	-33%	8%	-12%	3%	-9%	0%	-2%
CCN1C(=O)N[C@@H](c2cccc(C(F)(F)F)c2)C(C(=O)OC)=C1C	-2%[9.22 µM]	.	5%[17.4 µM]	-3%[14.2 µM]	.	10%[11.4 µM]	4%[17.5 µM]
O=C(c1ccccn1)c1conc1C(=O)c1ccc(Br)cc1	-6%	-14%	5%	4%	-1%	3%	6%
Cc1cc(C(=O)COC(=O)c2cccnc2Cl)c(C)n1CC1CCCO1 (stereo not given)	11%	-4%	6%	2%	0%	0%	9%
O=C(Nn1c(O)c(C=C2N=c3ccccc3=N2)sc1=S)c1ccccc1Cl	-3%	-7%	-19%	9%	-5%	0%	-8%
O=C1NC(c2ccccc2)=NC1(NS(=O)(=O)c1ccccc1)C(F)(F)F (stereo not given)	12%	5%	3%	-2%	0%	8%	6%
O=[N+]([O-])c1ccccc1Sc1nccn1Cc1ccccc1	15%	6%	-9%	0%	5%	-6%	-15%
CC(=O)N1C(C)(C)CC(=NOC(=O)c2ccccc2)CC1(C)C	-2%	-7%	-13%	10%	5%	-4%	5%
Cc1ccccc1-n1nc(C)c2cc(C(=O)N3CCN(S(=O)(=O)c4ccccc4)CC3)sc21	-1%	-2%	1%	6%	9%	-2%	-15%
Cc1ccc2nc(-c3cccc(Br)c3)cc(C(=O)Nn3cnnc3)c2c1	13µM*	-10%	-14%	7%	-10%	?	5%
O=C(Cc1c(F)cccc1Cl)N1CCN(C(=O)c2ccco2)CC1	?	-2%	-2%	-2%	-7%	8%	21%
COc1cc(OC)cc(-c2nnc(SCC(=O)Nc3cccc(C(=O)O)c3)s2)c1	8%	2%	2%	1%	5%	-5%	-4%
Cn1cccc1C(=O)N1CCC[C@@]2(CCN(c3ccncc3)C2)C1	-9%	.	-4%	4%	.	.	-4%
CN1CC=C2C(C#N)=C(N)C(C#N)(C#N)[C@H](c3ccoc3)[C@H]2C1	3%	17%	-1%	-17%	?	?	-2%
Cc1ccc(S(=O)(=O)NC2=NCN(CCN3CCOCC3)CN2)cc1	9%	3%	-4%	-2%	4%	-2%	3%
O=C(O)c1nnn(-c2cccc(C(F)(F)F)c2)c1-c1ccccc1	.	2%	-10%	5%	-5%	-4%	1%
C#CCN(C)Cc1ccccc1	-31%[inhibitor]	3%	-5%	14%	-2%[15.4 µM]	4%	-7%
COc1ccccc1CCNC(=O)/C(=C/c1cccnc1)NC(=O)c1ccccc1	-1%[1.84 µM]	-2%	5%	-7%	1%	-27%	8%
CC1CC(C)(C)NC(=S)N1CCC(=O)NCc1ccc(Cl)cc1 (stereo not given)	7%	-15%	7%	6%	9%	5%	-2%
Cc1c(/C=N/N2C(=O)C3C4C=CC(C4)C3C2=O)c2ccccc2n1C (stereo not given)	-13%	-1%	-6%	-4%	-5%	4%	-5%
O=C(OCC(=O)N1CCN(c2ccccc2)CC1)C1=COCCO1	.	8%	-5%	-32%	6%	2%	-12%
COc1ccc(OC)c(C(=O)c2coc3ccc(O)cc23)c1	16%	2%	8%	5%	-2%[15.4 µM]	?	-7%
Cc1ccc(Oc2ccc(Cl)cc2NC(=O)c2cnccn2)cc1	11%	-2%	-1%	-2%	-5%	-5%	1%
O=C(COC(=O)c1cc(F)cc(F)c1)Nc1cccnc1Cl	.	5%	0%	-4%	3%	2%	3%
O=c1[nH]c2ccc(NS(=O)(=O)c3ccc(Cl)cc3)cc2[nH]1	15%	?	-4%	8%	10%	10%	4%
CCNC(=S)N1CCC(c2nc3ccccc3s2)CC1	-23%	?	-4%	3%	?	10%	-11%
CCOC(=O)c1c(C)[nH]c(C)c1C(=O)COC(=O)CCOc1ccccc1OC	13%	-3%	0%	17%	-6%	-8%	7%
CCS(=O)(=O)N1Cc2ccccc2CC1C(=O)Nc1nccs1 (stereo not given)	18µM*	16%	-4%	5%	5%	4%	-1%
CCOc1cc(C(=O)Nc2cc(=O)n(C)c(=O)n2C)cc(OCC)c1OCC	32%	6%	-7%	-2%	6%	8%	-3%
COC(=O)c1nnc(N[C@@H](Cc2c[nH]c3ccccc23)C(=O)OC)nc1C(=O)OC	14%	.	12%	-8%	.	-6%	29%
CSCCC(NC(=O)c1c(C)oc2c1CCCC2)C(=O)O (stereo not given)	18%	3%	7%	2%	-8%	-8%	6%
Cc1nn(-c2ccccc2)c(Cl)c1C1C(C#N)=C(N)Oc2c1c(C)nn2-c1ccccc1 (stereo not given)	-6%	?	2%	3%	-6%	8%	3%
CC(C)CC(N)c1cn([C@@H](CCC(=O)O)C(=O)N2CCNCC2)nn1 (stereo not given in full)	.	-6%	0%	-2%	.	1%	14%
O=C(c1cc(S(=O)(=O)N2CCCCC2)ccc1N1CCOCC1)N1CCN(Cc2ccccc2)CC1	-5%	3%	-18%	5%	6%	-17%	0%
Cc1ccc(OCc2nnc(SCC(N)=O)n2N)cc1	0%	-3%	3%	-8%	4%	9%	-1%
O=C(O)c1cnn(-c2nc(-c3ccc(F)cc3)cs2)c1C(F)(F)F	27%	0%	3%	8%	0%	?	4%
Cc1onc(-c2ccccc2Cl)c1C(=O)Nc1ccc2c(c1)OCO2	-13%	-2%	2%	-1%	-2%	-2%	5%
CCN(CC(=O)NCc1ccc(F)cc1)C(=O)COc1ccc2ccccc2c1	4%	-7%	-23%	11%	3%	-1%	1%
O=C(Cn1ccc2ccccc2c1=O)NCCC(=O)Nc1ccc2c(c1)OCCO2	5%	-13%	-9%	4%	0%	-4%	-11%
CCOC(=O)C1(Cc2cccc(OC)c2)CCN(Cc2cccn2-c2ccccn2)CC1	.	0%	-9%	-11%	-4%	2%	-4%
O=C(NC(=S)NCc1cccnc1)c1ccccc1[N+](=O)[O-]	2%	3%	-4%	3%	8%	0%	-3%
CCc1ccc2[nH]cc(C(=O)N3CCCCCC3)c(=O)c2c1	-7%	-13%	10%	12%	-8%	-7%	-3%
CCn1cc([N+](=O)[O-])c(C(=O)Nc2ccn(Cc3ccccc3F)n2)n1	-37%	-1%	-1%	-3%	-1%	1%	0%
COc1ccc(OCc2ccc(C(=O)NN)cc2)cc1	15%	22%	-18%	3%	-7%	9%	-2%
O=C(Cn1c(=O)n(-c2ccccc2)c(=O)c2oc3ccccc3c21)Nc1ccccc1	-3%	10%	-1%	16%	-6%	?	3%
O=C(Nc1ccc(N2CCOCC2)c(F)c1)c1ccncc1	-19%	8%	0%	5%	0%	-4%	6%
CCCOc1ccc(Cn2c(=O)oc3ccc(C)cc32)cc1OC	-41%[inhibitor]	3%	0%	-2%	-1%	-4%	-1%
Cc1ccc(-n2[nH]c(=O)c(-c3ccccn3)c2C)cc1	.	-13%	6%	3%	4%	-3%	4%
CCN(CC)C(=O)c1ccccc1NS(=O)(=O)c1ccc(C)cc1	.	-5%	-7%	5%	-3%	7%	1%
